From PubChem
RVFV N-RNA FP: RVFV nucleocapsid-RNA interaction inhibition; P21700; RVFV N-RNA binding, fluorescence polarization; active compounds read low; % bound, % (test concentration not listed); hit rate 0.1% among 20,000;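 active = between 0 and 58% in either replicate with normal brightness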;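 also: 100 nL library stock added to about 12 µL; 100% = protein and probe without compound and 0% = probe alone; numbers are from one replicate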
Target sequence (P21700 whole entry, looked up): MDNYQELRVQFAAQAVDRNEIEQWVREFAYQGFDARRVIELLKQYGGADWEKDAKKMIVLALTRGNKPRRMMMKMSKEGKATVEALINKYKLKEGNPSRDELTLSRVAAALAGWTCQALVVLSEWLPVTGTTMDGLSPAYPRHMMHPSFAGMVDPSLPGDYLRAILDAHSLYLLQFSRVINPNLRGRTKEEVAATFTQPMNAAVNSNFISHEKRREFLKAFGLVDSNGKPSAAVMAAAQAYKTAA
* marks the source's active call; other numbers are inactive results; & = joins results of further samples.

SMILES	RVFV N-RNA FP
NNC(=O)c1oc2nc(-c3ccccc3)cc(-c3ccco3)c2c1N	93
CP(=O)(Nc1cc(Cl)ccc1Cl)c1nc2c(s1)CCCC2 (stereo not given)	95
COc1c2c(cc3c1C(CC(=O)c1ccccc1)N(C)CC3)OCO2 (stereo not given)	91
COC(=O)c1ccc(-n2cccn2)cc1	97
CC(C)C(=O)Nc1c(C(N)=O)oc2ccccc12	92
CSc1sc(C(=O)O)c2c1C(=O)CC(C)(C)C2	96
CC(C)(C)c1nocc1C(=O)O/N=C(\N)c1ccccn1	85
CC1SCC(=O)N(CC(=O)NCc2ccc(F)cc2)C1=O (stereo not given)	93
C#CCN1CC(OCC)=CC1=O	97
c1ccc(Sc2ncnc3ccsc23)nc1	93
CCCC1=C(C(=O)OCC)C(c2ccc(NC(C)=O)cc2)NC(=O)N1 (stereo not given)	94
O=C(Nc1cc(-c2cccs2)nn1-c1ccc(I)cc1)C1CCC1	94
CSC1CCCCC1(O)CSc1nc2ccccc2o1 (stereo not given)	91
CCCCNC(=O)Nc1cccc(-c2nnco2)c1	101
COc1ccc(-n2c(C)cc3cc(OC(C)=O)ccc32)cc1	100
COCCCn1c(-c2cccc(OC)c2)nc2nc3ccccc3nc21	95
CCOC(=O)C(C)Oc1ccc(C#N)cc1OC (stereo not given)	105
Cc1ccc2cc(CCNC(=O)c3ccc4c(c3)OCO4)c(=O)[nH]c2c1C	96
COc1cc(C(=O)Nc2cccc(-c3nc4cc(Cl)ccc4o3)c2C)cc(OC)c1OC	84
N=c1c2cnn(-c3ccccc3)c2ncn1/N=C/c1ccc(Cl)cc1Cl	107
c1ccc(C23CC4CN(CCN(C4)C2)C3)cc1	96
CS(=O)(=O)c1nc(S(=O)(=O)c2ccc(Cl)cc2)c(N2CCCC2)s1	85
CCOC(=O)/C(C)=N/Nc1cc(C(F)(F)F)ccc1N1CCOCC1	94
CN(C)N=C1c2cc(S(=O)(=O)N(C)C)ccc2-c2ccc(S(=O)(=O)N(C)C)cc21	92

Reformatted: entries from further up.
compound,RVFV N-RNA FP
COc1ccc(-n2c(C)cc3cc(OC(C)=O)ccc32)cc1,100
COCCCn1c(-c2cccc(OC)c2)nc2nc3ccccc3nc21,95
CCOC(=O)C(C)Oc1ccc(C#N)cc1OC (stereo not given),105
Cc1ccc2cc(CCNC(=O)c3ccc4c(c3)OCO4)c(=O)[nH]c2c1C,96
COc1cc(C(=O)Nc2cccc(-c3nc4cc(Cl)ccc4o3)c2C)cc(OC)c1OC,84

(listing goes on)
SMILES	RVFV N-RNA FP
CCOC(=O)c1cnc(SCC(=O)c2ccccc2)nc1N	106
Nc1sc2c(c1C(=O)NCc1ccco1)CCCC2	91
COc1ccc2nc(SC)[nH]c2c1	95
O=S(=O)(N/N=C/c1ccccc1)c1ccccc1	85
CCOC(=O)c1c(C)noc1-c1csc(COc2cccc(Cl)c2)n1	95
OC(Cc1nc2ccccc2o1)c1ccccc1 (stereo not given)	89
Nc1nc(=O)n([C@@H]2CS[C@H](CO)O2)cc1F	92
Cc1cc(S(=O)(=O)NCc2ccccc2)ccc1OCC(=O)N1CCOCC1	98
Cc1cc(-c2onc(C)c2/C(N)=N/O)no1	90
COC(=O)c1cc(/C=N/NC(N)=O)cn1C	99
COc1ccc(/C=C2\COc3ccc(C)cc3C2=O)cc1O	98
O=C1CC(CSc2nnnn2-c2ccccc2)=NN1c1ccccc1	96
CCOc1ccc(-n2c(N)c(C(=O)NCc3cccnc3)sc2=S)cc1	97
CC(C)(C)C(=O)NCC(c1ccco1)N1CCN(c2ccc(F)cc2)CC1 (stereo not given)	92
Cc1ccc(S(=O)(=O)Nc2cccc(C(=O)N3CCCCC3)c2)cc1	94
COC(=O)c1sccc1NC=C(C#N)C#N	105
O=C1CSC(=O)N1CCN1C(=O)S/C(=C\c2ccccc2O)C1=O	79
CC(C)(Sc1ccc(CCN(CCCCC2CCCCC2)C(=O)NC2CCCCC2)cc1)C(=O)O	87
COC(=O)c1ccccc1NC(=O)c1cc[n+]([O-])cc1	94
O=C(Nc1ccccc1)c1cccnc1NCCc1ccccc1	96
CC(C)(C)NCC(O)c1ccc(O)c(CO)c1 (stereo not given)	93&108&96
O=C1CCc2cc(S(=O)(=O)Nc3ccccc3)cc3c2N1CCC3	88
CCOc1cc(/C=N/O)ccc1OCc1cccc(F)c1	91
Cc1c2c(=O)n(-c3ccccc3)[nH]c2cc(=O)n1Cc1ccccc1	101
O=C(NCC1CC1)Nc1ccc(Cl)cc1	111
NNc1nc2ccc(Cl)cc2s1	98
Fc1ccc(-c2nc3ncccc3o2)cc1	95
O=C(COc1ccccc1)c1c[nH]c2ccccc12	96
Cc1onc(-c2ccccc2)c1C(=O)c1ccc(F)cc1	102
CC1(C)CC(=O)C/C(=N\NC(=O)CCC(=O)Nc2ccccc2)C1	100
CCCC(=O)c1cc(-c2nc3ccccc3n2C)n(C)c1	101
Cc1csc2nc(O)c(C(=O)NCCCN3CCOCC3)c(=O)n12	101
C/C(=N/NS(C)(=O)=O)c1ccc2ccccc2c1	93
CCC(C(=O)NC1CCN(C)CC1)c1ccccc1 (stereo not given)	101
NC(=S)NC12CC3CC(CC(C3)C1)C2	92
NS(=O)(=O)c1ccc(NC(=S)NC2CCCCC2)cc1	92
Clc1cccc(Cl)c1Cn1nnc(-c2ccccc2)n1	101
O=C(O)/C=C/C(=O)N1CCN(Cc2ccccc2)CC1	96
NC(=NC(=O)c1ccc(Cl)cc1)N1N=CCC1c1ccccc1 (stereo not given)	94
O=C(O)CCc1n[nH]c(=S)[nH]c1=O	103
COc1ccccc1C(=O)NNc1ncccc1C(F)(F)F	92
O=C(Nc1ccc(Br)cn1)Nc1ccccc1C(F)(F)F	92
COCCNC(=O)C1CCC(C(=O)NCCOC)CC1 (stereo not given)	95
C=C1/C(=N/O)CC2CC1C2(C)C (stereo not given)	91
O=C(O)c1cccc(S(=O)(=O)Nc2ccc(O)cc2)c1	97
O=C(OCc1c(F)cccc1Cl)c1ccco1	109
Cc1nnsc1C(=O)Nc1ccc(F)cc1	99
Cc1ccnc(NC(=O)CSC2=NC(=O)C(c3ccccc3)C(=O)N2)c1 (stereo not given)	82
O=C(Nc1ccc(S(=O)(=O)Nc2ccccn2)cc1)c1ccc(F)cc1	95
O=C(Cc1ccccc1)Nc1ccn(Cc2ccccc2)n1	97
Cc1cc(NNC(=O)c2cccc(C(F)(F)F)c2)nc2c1c(C)nn2C	93
Cn1c(=O)[nH]c2ncn(C)c2c1=O	100
CN1c2ccccc2N(C)C1c1ccc2c(c1)OCO2	103
COc1ccccc1Nc1n[nH]c(=S)n1C(=O)c1cccs1	95
Cc1ccc(C(O)C(C)C)cc1 (stereo not given)	103
O=c1cc(CSc2n[nH]c(=O)n2-c2cccnc2)c2ccc(O)cc2o1	99
COC(=O)C1C2c3ccccc3OC1(C)N=c1s/c(=C\c3ccc(C)o3)c(=O)n12 (stereo not given)	94
Cc1cccc(C2=NN3C(=N)/C(=C\c4ccc5c(c4)OCO5)C(=O)N=C3S2)c1	100
CCOC(=O)c1ccc(NCn2c(=O)oc3ccccc32)cc1	96
CS(=O)(=O)NC1CC(=O)N(c2cccc(F)c2)C1 (stereo not given)	94
The results go on.
SMILES	RVFV N-RNA FP
O=C1c2ccccc2C(=O)N1n1c(=O)[nH]c2ccccc2c1=O	96
CCN(C(C)=O)c1cccc(-c2ccnc3c(C#N)cnn23)c1	96
Nc1cc(=O)[nH]c(=S)n1-c1cccc(C(F)(F)F)c1	90
COc1cc(OC)nc(OC)n1	95
CN1CCc2cccc(Cl)c2CC1	99
O=C(NCc1n[nH]c(=O)c2ccccc12)Nc1ccccc1	91
COc1cc(OC)nc(NC(=S)Nc2ccc(F)cc2)n1	83
[O-]/[N+](=C/c1ccc(C(F)(F)F)cc1)c1ccccc1	94
CCCc1cnc2c(c1SCC(=O)NCc1ccc(F)cc1)c(=O)n(C)c(=O)n2C	100
N=c1c2c(-c3ccccc3)c(-c3ccccc3)n(Cc3ccco3)c2ncn1CCN1CCOCC1	98
COc1ccc(C2=CC(C3CC3)=C(C#N)C(=C(C#N)C#N)N2)cc1	70
CC(C)CNC(=O)CC1Sc2ccc(C(F)(F)F)cc2NC1=O (stereo not given)	100
Cn1nc(C(F)(F)F)cc1-c1ccc(S(N)(=O)=O)s1	98
Nc1ncnc2c1ncn2C1CCCO1 (stereo not given)	89
O=C1c2c(O)cc(O)cc2OC(c2ccc(O)c(O)c2)C1O (stereo not given)	95
O=C(CSc1ccccc1)Nc1cccc(O)c1	91
CCN(c1ncnc2c1cnn2-c1cccc(Cl)c1)C1CCCCC1	90
S=c1nc(NC2CCCCC2)cn[nH]1	98
O=C(Nc1nn(Cc2c(F)cccc2Cl)cc1Br)C1CCCO1 (stereo not given)	101
COc1ccc(/C=N/c2nnc(SC)s2)c(O)c1	92
CC(=O)Nc1ccccc1C(=O)OCc1nnc(-c2ccccc2)o1	98
Cc1c2c(=O)n(-c3ccccc3)[nH]c2cc(=O)n1CCc1ccccc1	91
O=C(NC(C(=O)NC1=NCCS1)C12CC3CC(CC(C3)C1)C2)C1CCCCC1 (stereo not given)	96
CC1(C)CC(=O)C2(CNC3=C(C2)C(=O)CC(C)(C)C3)C(=O)C1	100

Pulled by compound from the entries so far (ten):
SMILES	RVFV N-RNA FP
O=C1c2c(O)cc(O)cc2OC(c2ccc(O)c(O)c2)C1O (stereo not given)	95
O=C1CSC(=O)N1CCN1C(=O)S/C(=C\c2ccccc2O)C1=O	79
O=C(Nc1ccc(S(=O)(=O)Nc2ccccn2)cc1)c1ccc(F)cc1	95
O=C(Nc1nn(Cc2c(F)cccc2Cl)cc1Br)C1CCCO1 (stereo not given)	101
CSc1sc(C(=O)O)c2c1C(=O)CC(C)(C)C2	96
Nc1ncnc2c1ncn2C1CCCO1 (stereo not given)	89
CC(C)(C)C(=O)NCC(c1ccco1)N1CCN(c2ccc(F)cc2)CC1 (stereo not given)	92
COCCNC(=O)C1CCC(C(=O)NCCOC)CC1 (stereo not given)	95
CCOC(=O)c1ccc(NCn2c(=O)oc3ccccc32)cc1	96
COc1ccccc1Nc1n[nH]c(=S)n1C(=O)c1cccs1	95

The main list resumes with the 6 entries that preceded the break.
SMILES	RVFV N-RNA FP
O=C(Nc1nn(Cc2c(F)cccc2Cl)cc1Br)C1CCCO1 (stereo not given)	101
COc1ccc(/C=N/c2nnc(SC)s2)c(O)c1	92
CC(=O)Nc1ccccc1C(=O)OCc1nnc(-c2ccccc2)o1	98
Cc1c2c(=O)n(-c3ccccc3)[nH]c2cc(=O)n1CCc1ccccc1	91
O=C(NC(C(=O)NC1=NCCS1)C12CC3CC(CC(C3)C1)C2)C1CCCCC1 (stereo not given)	96
CC1(C)CC(=O)C2(CNC3=C(C2)C(=O)CC(C)(C)C3)C(=O)C1	100
CC1CS(=O)(=O)CCO1 (stereo not given)	95
CCCCC/C=C\C/C=C\C/C=C\C/C=C\CCCC(=O)Nc1ccc(O)cc1	87
CC12CCC(C/C1=N\N=C1/NC(=O)C(CC(=O)NC(N)=O)S1)C2(C)C (stereo not given)	100
O=C(CSc1nc2c(c(=O)n1Cc1ccccc1)SCC2)NCc1ccco1	93
c1ccc(OCc2nnc3n2CCCCC3)cc1	93
CCOC(=O)C1CCCCN1Cc1ccc(Br)cc1 (stereo not given)	99
OC12CC3CC(C1)C1(NCCS1)C(C3)C2 (stereo not given)	91
Cc1ccc(N2CC(NC(=O)Nc3ccc(C(N)=O)cc3)CC2=O)cc1C (stereo not given)	96
Cc1ccc2occ(CN3CC=C(c4ccc(F)cc4)CC3)c(=O)c2c1	100
CC1CN(S(=O)(=O)c2cccc3cnccc23)CCN1 (stereo not given)	97
CCc1ccc(NCN2C(=O)C3=C(CCCC3)C2=O)cc1	96
CCOC(=O)c1cc(-c2csc(-c3ccc(C(F)(F)F)cc3)n2)on1	99
Nn1nnc2ccccc21	96
CCn1nc(C)cc1-c1n[nH]c(=S)n1-c1ccccc1	92
O=C(NC(Cc1cc(=O)[nH]c2ccccc12)C(=O)O)c1ccc(Cl)cc1 (stereo not given)	102
O=C(O)/C=C/C(=O)Nc1ccc(Br)c(Cl)c1	97
Cc1cc(OC(C)C)nc(-c2ccccc2O)n1	98
O=c1c2c([nH]c3ccccc13)C(=C1CCCC1)CC2	89
CNc1nc(C)c(C(=O)OCc2ccccc2)s1	93
CC(=O)NCC12CC3CC(CC(C3)C1)C2	88
COc1ccc(N2CC(NC(=O)N(Cc3ccccc3)C(C)C)CC2=O)cc1 (stereo not given)	102
Cc1ccc(S(=O)(=O)c2nc(-c3ccccc3)oc2Sc2nc3ccccc3[nH]2)cc1	85
COc1cccc(CNc2ccc(N3CCCCC3)cc2)c1OC	98
CSc1nnc(-c2csc(S(=O)(=O)Nc3cccc(Cl)c3)c2)n1C	92
O=c1[nH]cc(S(=O)(=O)NCc2ccccc2)c(=O)[nH]1	100
O=S(=O)(c1ccccc1)n1nccc1-c1cc(-c2ccccc2)no1	87
O=C(COc1ccccc1)Nc1ccccc1	88
Cc1n[nH]c(=O)c2noc(/C=C/c3ccc(C(F)(F)F)cc3)c12	83
Cc1cc(=O)[nH]c(SCc2ccc(C(=O)Nc3nccs3)cc2)n1	96
COC(=O)c1ccc(S(=O)(=O)N2CCN(C)CC2)n1C	96
Cc1ccc(-c2nc(I)ccc2O)cc1	107
CCCNC(=O)c1ccc2c(c1)C(=O)N(CC(C)C)C2=O	96
COc1ccc(-c2nnc(NC(=O)C3CC3)o2)cc1	92
N#Cc1ccc(CSc2nc(N)cc(=O)[nH]2)cc1	94
O=C1CSC(=Nc2cccc3ccccc23)N1	99
Cc1onc(-c2c(Cl)cccc2Cl)c1C(=O)NCC(C)(C)C	98
O=C(CC1SC(=Nc2ccc(O)cc2)NC1=O)c1ccc(F)cc1 (stereo not given)	88
Nc1nc(-c2c(Cl)cccc2Cl)no1	95
CC(C)(C)OC(=O)N1CCN(C(=O)C2CCN(c3nccc(C(F)(F)F)n3)CC2)CC1	102
Cn1ccnc1C(O)c1ccc2c(c1)OCO2 (stereo not given)	98
O=C(c1cccnc1)N1CCC2(CC1)OCCO2	92
C=CCn1c(Sc2c3c(nc4ncnn24)CCC3)nnc1-c1ccccc1	95
NC(=O)c1cccc(N=Cc2cc(Br)ccc2O)c1	90
O=C(Nc1ccccc1)c1cccc(I)c1	88
Cc1ccccc1OC(=O)c1ccc2c(c1)C(=O)N(C)C2=O	102
COc1cc(C(=O)NNc2ccccc2)cc(OC)c1OC	101
COc1ccc(N2CCSC2C(=O)NN)cc1 (stereo not given)	98
Cc1ccc(C(=O)c2ccc(CC(=O)O)n2C)cc1	93

A portion of the library; rates above refer to the full screens.
